# UUG fidelity: modulators of yeast start codon fidelity, primary screen, whole organism, S. cerevisiae, single point, plate reader | activity score, % at 18.7 µM | 350,000 tested, 0.13% active | S. cerevisiae UUG-firefly luciferase reporter, luminescence/redox ratio;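 active = replicate mean at a twofold rise or more, about +100% in these data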;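 also: firefly luciferase made from a UUG start codon reports start codon fidelity; reporter light over untreated wells divided by growth signal over untreated wells; some hits fall short of that in this replicate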
# MT1-MMP act inh: blockers of MT1-MMP proenzyme processing, primary screen, HT1080 RFP-PRO-GFP cells, GFP/RFP fluorescence; 360,000 tested, 0.061% active; GFP/RFP ratio fluorescence, overnight; percent of plate control window, DMSO zero; GFP/RFP ratio change, % at 20 µM; AID 651647, 2012; Matrix metalloproteinase-14 (Homo sapiens), P50281;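 active = GFP/RFP ratio change of at least 30% with cell ATP level not reduced by more than half and red fluorescence within 50% of control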; also: strong numbers were not always called active
#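 Assay system: HT1080 cells carrying an RFP-PRO-GFP reporter | Dosing: Single dose of 20 µM compound, 1% DMSO final | Incubation: Cells overnight before dosing, compound overnight, 37 °C, 5% CO2 | Evaluation: GFP/RFP fluorescence ratio | Control set: DMSO and RFP-L50D-GFP cell wells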
# Env fusion inh: inhibitors of HIV-1 Env-driven cell-cell fusion, primary screen, HeLa-JRFL effector, CEM21 target cells, luciferase. inhibition, % at 12.3 µM. 360,000 tested, 1.1% active. AID 651610, 2012;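 active = mean replicate inhibition score of at least 50 and every replicate individually at or above 50; inconclusive = only one of the two criteria met; inactive = mean below 50 and not all replicates reaching 50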;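 also: 0% = plate neutral controls and 100% = maraviroc near 300 nM; one replicate is shown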
# CSC inhib: cancer stem cell viability inhibitors, primary screen, luminescence | inhibition, % at 7.5 µM | cancer stem cell-like cells viability | 300,000 tested, 1.1% active;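 active = mean at 75% or more and at least half the replicates too; inconclusive = mean and replicates disagree; tested in HMLE shEcad cells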;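 also: 0% = median of negative and 100% = median of positive control wells; the first replicate is given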
# PABP FP inh: PABP poly(A) RNA binding inhibitors, primary screen, biochemical, fluorescence polarization, uHTS | Polyadenylate-binding protein 1 (Homo sapiens), P11940 | inhibition, % at 35 µM | 290,000 tested, 1% active | AID 2014, 2009;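 active = 50% or more with normal probe brightness, or confirmed in later tests; inconclusive = above 50% with abnormal brightness, or retests that disagree; inactive = below 50% or failed in later tests; about a fifth of its hits are not listed in these tables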;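 also: calls also rest on retests at 20 µM and on dose response follow-up; controls were probe without protein and protein plus probe with vehicle; some compounds called inactive have numbers as strong as hits; many hits fall short of the cut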
# Target sequence (P11940 whole entry, looked up): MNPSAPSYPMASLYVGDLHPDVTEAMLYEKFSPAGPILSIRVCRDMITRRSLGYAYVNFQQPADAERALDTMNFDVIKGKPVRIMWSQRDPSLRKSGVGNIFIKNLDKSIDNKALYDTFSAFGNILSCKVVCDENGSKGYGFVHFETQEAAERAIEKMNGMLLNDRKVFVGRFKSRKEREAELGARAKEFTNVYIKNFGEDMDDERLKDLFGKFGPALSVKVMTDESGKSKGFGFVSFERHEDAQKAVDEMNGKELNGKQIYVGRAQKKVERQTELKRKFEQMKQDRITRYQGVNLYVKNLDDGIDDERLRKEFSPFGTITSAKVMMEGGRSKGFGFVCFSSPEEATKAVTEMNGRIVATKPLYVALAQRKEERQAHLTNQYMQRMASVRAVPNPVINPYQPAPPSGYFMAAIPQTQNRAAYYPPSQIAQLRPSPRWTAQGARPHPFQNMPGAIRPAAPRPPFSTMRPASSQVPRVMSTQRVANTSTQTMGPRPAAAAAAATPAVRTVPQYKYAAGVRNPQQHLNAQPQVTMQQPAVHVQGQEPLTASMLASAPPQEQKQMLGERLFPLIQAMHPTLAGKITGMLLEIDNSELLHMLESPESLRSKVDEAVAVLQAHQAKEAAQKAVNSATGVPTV
# Rce1 inh: yeast Rce1p protease inhibitors, primary screen, biochemical, fluorescence, cell-free homogeneous. yeast membranes, quenched prenylated peptide cleavage fluorescence. calls only. 290,000 tested, 0.27% active;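 active = fall in fluorescence gain of 50% or more versus controls, with final raw signal at or below 3038400; inconclusive = same 50% fall but final raw signal above 3038400; inactive = fall in fluorescence gain under 50%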;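 also: plate controls were neutral control wells for no effect and wells lacking membranes for full effect; tested at 10 µM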
# Target sequence (Q03530 whole entry, looked up): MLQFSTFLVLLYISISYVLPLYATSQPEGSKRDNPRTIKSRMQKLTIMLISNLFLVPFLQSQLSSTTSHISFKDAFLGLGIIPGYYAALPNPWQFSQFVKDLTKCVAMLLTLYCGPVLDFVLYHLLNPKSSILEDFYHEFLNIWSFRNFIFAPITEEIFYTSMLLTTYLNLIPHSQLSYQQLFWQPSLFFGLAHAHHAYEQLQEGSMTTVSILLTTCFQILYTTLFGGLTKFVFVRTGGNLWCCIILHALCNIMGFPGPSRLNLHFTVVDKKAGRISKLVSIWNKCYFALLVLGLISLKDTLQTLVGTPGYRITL
# eIF4H FP inh: human eIF4H binding inhibitors, primary screen, translation initiation inhibitor project, biochemical, uHTS, fluorescence polarization; Eukaryotic translation initiation factor 4H (Homo sapiens), Q15056; eIF4H fluorescence polarization binding assay; inhibition, % at 35 µM; 290,000 tested, 0.94% active; AID 2012, 2009;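 active = 50% or more with normal probe brightness, or confirmed in later tests; inconclusive = above 50% with abnormal brightness, or retests that disagree; inactive = below 50% or failed in later tests; about a fifth of its hits are not listed in these tables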;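 also: calls also rest on retests at 20 µM and on dose response follow-up; 0% = protein and probe with vehicle and 100% = probe without protein; strong numbers were not always called active; many hits fall short of the cut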
# eIF4H FP inh retest: second read-out of eIF4H FP inh, no call of its own (marks repeat the call); inhibition, %; compound at 20 µM; confirmation average;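 mean of two retest wells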
# PABP FP inh retest: further read-out of PABP FP inh, marked with its call; inhibition, %; compound at 20 µM; confirmation repeats;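 mean of two retest wells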
# MT1-MMP act inh RFP: further read-out of MT1-MMP act inh, marked with its call; RFP signal change, %; measured here: RFP expression control read;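 0 = vehicle wells; hits needed this value within 50% of zero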
# Active calls of the source: *; i = inactive; ? = inconclusive; . = no result given.
# Start of the data: the first 7 records as a preview:
SMILES,UUG fidelity,MT1-MMP act inh,MT1-MMP act inh RFP,Env fusion inh,CSC inhib,PABP FP inh,Rce1 inh,eIF4H FP inh,others
CC(=O)N1c2c(cc(Br)cc2S(=O)(=O)N2CCOCC2)CC1C (stereo unspecified),-10,-5,2,23,-5,7,i,-5,
O=C(CCn1c(=O)oc2cc(Cl)ccc21)Nc1ccc(N2CCOCC2)cc1,2,-1,-2,3,.,6,i,-2,
CC(C)c1ccc2[nH]c3c(c2c1)[C@@H]1CCN2C(=O)CCC[C@H](C3)[C@H]12,14,-1,-21,-64,-14,3,i,13,
O=C(OCc1nnc(-c2ccccc2)o1)C1CC(=O)N(c2ccccc2)C1 (stereo unspecified),-6,-2,2,-6,-6,3,i,-2,
CSC1=NCCN1C(=O)Cc1ccc(F)cc1,3,0,6,2,0,-1,i,-10,
COc1cccc(-c2ccc(-c3noc(-c4cccs4)n3)c(OC)n2)c1,.,2,0,.,5,38,i,-14,
O=C(CN1C(=O)COc2ccc(S(=O)(=O)N3CCCC3)cc21)N1CCCC1,2,1,1,-37,4,0,i,0,

# All compounds of this part, previewed entries included:
SMILES,UUG fidelity,MT1-MMP act inh,MT1-MMP act inh RFP,Env fusion inh,CSC inhib,PABP FP inh,Rce1 inh,eIF4H FP inh,others
CC(=O)N1c2c(cc(Br)cc2S(=O)(=O)N2CCOCC2)CC1C (stereo unspecified),-10,-5,2,23,-5,7,i,-5,
O=C(CCn1c(=O)oc2cc(Cl)ccc21)Nc1ccc(N2CCOCC2)cc1,2,-1,-2,3,.,6,i,-2,
CC(C)c1ccc2[nH]c3c(c2c1)[C@@H]1CCN2C(=O)CCC[C@H](C3)[C@H]12,14,-1,-21,-64,-14,3,i,13,
O=C(OCc1nnc(-c2ccccc2)o1)C1CC(=O)N(c2ccccc2)C1 (stereo unspecified),-6,-2,2,-6,-6,3,i,-2,
CSC1=NCCN1C(=O)Cc1ccc(F)cc1,3,0,6,2,0,-1,i,-10,
COc1cccc(-c2ccc(-c3noc(-c4cccs4)n3)c(OC)n2)c1,.,2,0,.,5,38,i,-14,
O=C(CN1C(=O)COc2ccc(S(=O)(=O)N3CCCC3)cc21)N1CCCC1,2,1,1,-37,4,0,i,0,
CCC(C)N(C(=O)COC(=O)c1[nH]c(C)c(C(C)=O)c1C)C1CCS(=O)(=O)C1 (stereo unspecified),3,3,5,.,6,-8,i,-2,
Nc1c(C(=O)NC2CCCC2)c2nc3ccccc3nc2n1N,-5,-4,-1,.,-16,15,i,9,
COc1cc(C(=O)OCC(=O)Nc2cc(-c3cc(C)c(C)cc3C)nn2-c2ccccc2)cc(OC)c1OC,.,1,1,-3,-2,5,i,-3,
CCOC(=O)c1cn2nc(-c3ccc(OCC)cc3)cc2nc1C1CCN(C(=O)OC(C)(C)C)CC1,-15,-8,-14,-98,8,-11,i,-20,
Cc1c(OC(C)C(=O)NCc2ccccn2)ccc2c3c(c(=O)oc12)CCCC3 (stereo unspecified),-22,3,-1,2,-4,-13,i,2,
O=C(Nc1nc2c(s1)CN(Cc1ccccc1)CC2)C1CCC1,-17,-2,-1,-12,-2,1,i,-6,
COC(=O)[C@H]1C[C@H]2[C@@H]3CC[C@H]4C[C@@H](OC)CC[C@]4(C)[C@H]3CC[C@]2(C)[C@@]2(CCCO2)O1,-14,-4,-5,-6,.,.,.,.,
CN(CC(=O)Nc1ccccc1Cl)C(=O)c1cc(-c2cccs2)nn1-c1ccccc1,-14,-1,3,.,69,.,i,.,
O=C(O)CCCCCCNS(=O)(=O)c1ccccc1,-20,1,7,0,-5,-8,i,1,
O=C(N/N=C/c1ccc[nH]1)c1ccccc1O,.,-17,-13,-42,10,13,i,-12,
Cc1ccc(C(=O)NC2CCN(C(=O)NCc3ccccc3)CC2)cc1,-18,0,5,1,-6,-2,i,-19,
O=C(CN1CCC(NC(=O)c2ccccc2F)CC1)NCc1ccc(F)cc1,-16,4,-2,11,-15,3,i,-2,
Cc1ccc(C(=O)CSc2nc3ccccc3c(=O)[nH]2)cc1,-19,0,3,-78,-2,-2,i,4,
CC(C)(C)C(=O)NC(=S)Nc1sc2c(c1C(N)=O)CCC2,1,-2,-1,-9,1,6,i,5,
O=c1c(O)c(-c2ccc3c(c2)OCO3)oc2ccccc12,-8,-13,-5,.,-10,-34,i,-5,
O=C(COC(=O)COc1cccc(C(F)(F)F)c1)NC1CCCC1,-18,1,5,2,-10,.,i,.,
CSCCC1Nc2ccc(S(=O)(=O)N3CCOCC3)cc2NC1=O (stereo unspecified),.,-3,-1,1,.,4,.,-2,
Cn1nc(-c2ccccc2)c2nc3ccccc3nc21,-15,-82,0,.,-17,?,i,?,

# Carrying on.
SMILES,UUG fidelity,MT1-MMP act inh,MT1-MMP act inh RFP,Env fusion inh,CSC inhib,PABP FP inh,Rce1 inh,eIF4H FP inh,others
CCCCCCNS(=O)(=O)c1ccc(NC(=O)C2CCCO2)cc1 (stereo unspecified),-3,0,-5,27,12,8,i,-3,
CC1Cc2ccccc2N1C1=CC(=O)CC(C)(C)C1 (stereo unspecified),-12,-5,-1,-7,-14,12,i,1,
CCOC(=O)c1cnn(-c2nc(SC)nc3sc4c(c23)CCCC4)c1N,-6,-5,-3,13,45,-11,i,-5,
COc1cccc(S(=O)(=O)NCc2ccc(C(=O)Nc3ccc(Cl)cc3)cc2)c1,.,-6,-15,43,?,0,i,-23,
Cc1cc(C)c2c(N)c(S(=O)(=O)Cc3ccccc3)sc2n1,-6,1,-1,.,-3,-12,i,8,
CN1CCN(CCNC(=O)Nc2ccccc2C(F)(F)F)CC1,-5,0,2,.,26,3,i,-5,
CN1C(=O)/C(=C/c2cc(C(C)(C)C)c(O)c(C(C)(C)C)c2)NC1=S,.,-4,2,1,-9,-26,i,-10,
Cc1ccc(N(CCCCN2C(=O)c3ccccc3C2=O)C(=O)c2ccc(Cl)s2)cc1,.,-7,-6,2,34,9,i,2,
CC1(C(=O)NS(=O)(=O)c2ccccc2Cl)CCN1C(=O)c1ccccc1 (stereo unspecified),-25,0,6,-112,.,.,.,.,
CCSC(C)CC1C/C(=N/O)c2c(C)noc2C1 (stereo unspecified),-4,2,2,.,-5,13,i,-11,
CCC(CC)C(=O)c1c[nH]c(C(=O)NN)c1,.,-1,5,5,3,2,.,-11,
CCCCCCCCCCCCCCCC(=O)OC(CC(=O)O)C[N+](C)(C)C (stereo unspecified),-12,0,-5,-8,.,.,.,.,
CCCn1nnc(NC(=S)NC(=O)Cc2ccccc2)n1,-21,0,1,-3,-10,0,i,-7,
CN(C)S(=O)(=O)c1cccc(-c2nnc(SCc3cc(Cl)cc4c3OCOC4)n2N)c1,-12,1,2,-7,.,-2,i,2,
COc1ccc(N2CCN(C(CNC(=O)C(=O)NCCCn3ccnc3)c3ccco3)CC2)cc1 (stereo unspecified),.,0,0,-21,8,-5,i,5,
N=c1c(C(=O)NCc2ccco2)cc2c(=O)n3ccccc3nc2n1Cc1ccc(Cl)cc1,1,-20,-11,-159,3,8,i,52,eIF4H FP inh retest=20;PABP FP inh retest=22
CCCN(CCC)CCCNC(=O)CS(=O)Cc1nc(-c2ccc(OC)c(OC)c2)oc1C (stereo unspecified),29,8,-1,-17,-1,-7,i,-3,
C[n+]1ccc(/C=C/c2c[nH]c3ccc(F)cc23)cc1,-7,-137,-21,59*,11,?,i,?,
COc1ccc2oc(C(=O)OCC(=O)N3CCCCC3C)c(C)c2c1 (stereo unspecified),-9,5,-5,.,-9,.,.,.,
Nc1ccc(OCCc2ccccc2)cc1,-8,3,-9,-14,-8,-2,i,-10,
CCOC(=O)CN1C(=O)C2(OCCCO2)c2ccccc21,-6,-3,4,6,-3,0,i,-6,
CCN(CC)CCNC(=O)Cn1cnc2sc(C)c(S(=O)(=O)N3CCN(c4ncccn4)CC3)c2c1=O,.,2,4,11,.,-10,i,4,
CCN(C(=O)COC(=O)c1ccc2ccccc2c1)c1c(N)n(Cc2ccccc2)c(=O)[nH]c1=O,-17,-4,-4,.,-5,.,.,.,
Cc1ccc(-c2nn(-c3ccccc3)cc2/C=N/NC(=O)CSc2nnc(C)n2-c2ccccc2)cc1,-15,-4,-7,.,24,1,i,-4,
CCOC(=O)C1CCCN(C(=O)/C=C/c2ccc([N+](=O)[O-])cc2)C1 (stereo unspecified),15,-7,2,16,-18,-13,i,1,

# Later entries:
SMILES,UUG fidelity,MT1-MMP act inh,MT1-MMP act inh RFP,Env fusion inh,CSC inhib,PABP FP inh,Rce1 inh,eIF4H FP inh,others
COc1ccccc1NC(=S)NNC(=O)c1nn(C)c(C)c1Cl,-21,2,8,.,-1,-6,i,12,
COc1cccc(NC(=O)CN(C)C(=O)c2ccccn2)c1,-19,1,-1,.,-4,.,.,.,
COc1ccccc1/C=N/NC(=O)c1nnn(-c2nonc2N)c1-c1cccs1,-24,1,4,.,-11,-1,i,-4,
Cc1cc2c(cc1[N+](=O)[O-])NC(CNC(C)C)CC2 (stereo unspecified),-13,3,4,-3,12,1,i,8,
C[C@H](NC(=O)c1nc[nH]c1C(=O)N(C)Cc1ccccc1)C(=O)OC(C)(C)C,-14,2,9,7,7,.,.,.,
Cc1cc(C)cc(N(CC(=O)NC2CCCC2)C(=O)CNC(=O)c2cccs2)c1,-11,-2,-1,-36,.,-4,i,3,
COc1ccc(N(C(=O)c2ccco2)C(C(=O)NC2CCCC2)c2ccc(OC)c(OC)c2)cc1 (stereo unspecified),-10,-2,0,55*,.,2,i,-5,
O=C(Cn1nnc(-c2ccccc2F)n1)Nc1ccc(C(=O)N2CCOCC2)cc1,-11,-1,-2,.,-8,2,i,1,
O=C(O)C1C2C=CC(C2)C1C(=O)Nc1ccc(Cl)c(Cl)c1 (stereo unspecified),-18,0,1,-11,44,1,i,3,
CCOC(=O)c1ccc(NC(=O)COc2ccc(S(=O)(=O)NC(C)CC)cc2)cc1 (stereo unspecified),-22,-2,-17,33,4,-1,i,-2,
COc1ccc(C(c2nnnn2C2CCCCC2)N2CCN(c3ccccc3F)CC2)cc1 (stereo unspecified),14,-20,-19,.,.,-8,i,-9,
CCCCC(=O)NC(Nc1ccc(C)cn1)(C(=O)OCC)C(F)(F)F (stereo unspecified),-13,-4,1,.,-14,1,i,-4,
Cc1cccc(C(=O)NNC(=O)c2csc(N3CCOCC3)n2)c1C,.,2,3,-1,-11,.,i,.,
CCn1nc(C(=O)N[C@@H](CCSC)c2nc3ccccc3[nH]2)c2ccccc2c1=O,.,0,2,.,-14,-2,i,0,
CC1=NNC(=O)C1CCC(=O)N/N=C\c1cccc(Cl)c1 (stereo unspecified),.,6,9,-3,-26,-5,i,-9,

# Screens: PubChem, several laboratories
